# ALR H2O2 inh: inhibitors of human ALR sulfhydryl oxidase, primary screen, biochemical, H2O2 detection, HRP-luminol luminescence, single point; FAD-linked sulfhydryl oxidase ALR (Homo sapiens), P55789; purified ALR, DTT oxidation; inhibition, % (test concentration not listed); 3.8% of 290,000 active;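 active = mean and each replicate at 75% or more; inconclusive = only one of the two met; inactive = neither met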;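 also: stock transfer was 7.5 nL into about 7.5 µL; 0% = neutral wells and 100% = wells with inactivated enzyme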
# Target sequence (P55789 whole entry, looked up): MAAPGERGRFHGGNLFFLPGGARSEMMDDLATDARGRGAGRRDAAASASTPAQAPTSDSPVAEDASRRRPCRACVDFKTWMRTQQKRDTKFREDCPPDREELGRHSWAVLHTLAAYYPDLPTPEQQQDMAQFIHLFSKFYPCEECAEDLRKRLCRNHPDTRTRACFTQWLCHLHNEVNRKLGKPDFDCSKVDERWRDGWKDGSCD
# Beta cell apopt: inhibitors of cytokine-induced beta cell apoptosis, primary screen, luminescence; protection from apoptosis, % (test concentration not listed); INS-1E cytokine-induced death, ATP luminescence, 48 h; percent of positive-control rescue, neutral wells zero; 0.8% of 300,000 active;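 active = all replicates at 75% or more, or half of them and the mean; inconclusive = half reach 75% but not the mean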;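 also: 0% = cytokine-treated negative control wells and 100% = positive control rescue; higher means more ATP so stronger rescue from cytokine killing; wells of about 40 µL received 100 nL stock; the first replicate is given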
# * marks the source's active call; other numbers are inactive results; ? = inconclusive.
[1] Cc1onc(-c2ccccc2Cl)c1C(=O)Oc1cc(N)n(S(=O)(=O)c2ccc(F)cc2)n1
[2] C[C@@]12C(=O)Nc3cc(Cl)ccc3C(=O)N1[C@H]1c3ccccc3OC[C@@H]1[C@@H]2c1ccccc1
[3] CCC(CO)Oc1cc(NCc2cccnc2)c2ncn(C(C)C)c2c1 (configuration not stated)
[4] O=C(NC1CCCCC1)C(c1ccncc1)N(C(=O)Cn1nnc(-c2cccs2)n1)C1CCCC1 (configuration not stated)
[5] CCOC(=O)CSCc1c(C#N)c2ccccc2n1C
[6] CCC(=C(c1ccc(OC)cc1)c1ccc(OC)cc1)c1cn(CC(O)CN2CCN(C)CC2)c2ccccc12 (configuration not stated)
[7] CC1=CC(c2ccccc2)n2nc(NS(=O)(=O)c3ccc(C)cc3)nc2N1 (configuration not stated)
[8] O=[N+]([O-])c1ccccc1S(=O)(=O)N1CCN(S(=O)(=O)c2ccc3c(c2)OCCO3)CC1

Compound	1	2	3	4	5	6	7	8
ALR H2O2 inh	15	-1	50	-1	-2	-19	5	-2
Beta cell apopt	-6	8	-3	-4	-3	1	-12	-6

[9] CN1CCN(C(=O)c2ccc3c(=O)n(CCc4ccccc4)c(=S)[nH]c3c2)CC1
[10] O=c1c2c3nc4ccccc4nc3n(-c3ccc4c(c3)OCCO4)c2ncn1C1CCCC1
[11] C=CCOc1cccc(C2C(C(=O)c3ccc(C)o3)=C(O)C(=O)N2CCN(C)C)c1 (configuration not stated)
[12] CC1=CC(C)(C)Nc2cc(C)c(C)cc21
[13] COC(=O)c1nc(N)sc1-c1ccccc1
[14] CCOC(=O)C1CCN(C(=O)CCn2c(=O)[nH]c3ccsc3c2=O)CC1
[15] Cc1ccccc1OCC(O)Cn1nnc2ccccc21 (configuration not stated)
[16] COc1ccc(CNC(=O)CCS(=O)(=O)c2cccc3nonc23)cc1

Compound	9	10	11	12	13	14	15	16
ALR H2O2 inh	10	1	11	0	-5	-3	-10	-19
Beta cell apopt	-3	14	-3	1	0	-1	-4	-6

[17] NC(=O)C1Cc2ccccc2CN1C(=O)c1nn(Cc2ccccc2)c(=O)c2ccccc12 (configuration not stated)
[18] COc1ccc2c(c1)-c1nc(/N=C/c3ccc(O)cc3)sc1CC2
[19] O=[N+]([O-])/C(=C\Nc1ccccc1Cl)S(=O)(=O)c1ccccc1
[20] Cc1ccc(-n2c(SCC(=O)NCC3CCCO3)nc3c(c2=O)SCC3)cc1 (configuration not stated)
[21] COc1cc2c(-c3ccc(O)cc3)nc3c(c(C)nn3-c3ccccc3)c2cc1OC
[22] N#C/C(=C\c1cccnc1)C(=O)Nc1ccccc1
[23] COc1ccc(N2CCN(Cc3nc4ccsc4c(=O)[nH]3)CC2)cc1
[24] Cc1cc(/C=C2\NC(=O)N(Cc3ccc(Cl)cc3)C2=O)c(C)n1C

Compound	17	18	19	20	21	22	23	24
ALR H2O2 inh	2	-120	-1	-4	6	1	56	-10
Beta cell apopt	7	-5	-10	-2	53	-2	-3	0

[25] Cc1cc(NC(=O)COC(=O)C(Cc2ccccc2)NC(=O)c2ccco2)no1 (configuration not stated)
[26] CCc1ccc2oc(-c3cc(N)cc(C)c3O)nc2c1
[27] COc1ccccc1N1C(=O)C2ON(c3ccccc3)C(c3ccc(N(C)C)cc3)C2C1=O (configuration not stated)
[28] CCOC(=O)c1cc(OC(=O)c2cccnc2)n(-c2ccccc2)n1
[29] CCN(CC)c1ccc(NC(=O)CN2CCN(CC(=O)Nc3ccc(F)cc3)CC2)cc1
[30] O=c1c2cc(N3CCOCC3)ccc2[nH]c(=S)n1CCCN1CCN(c2ccccc2F)CC1
[31] CCOC(=O)c1c(NC(=O)CSc2nnc(-c3ccc(C)cc3)o2)sc(C(C)=O)c1C
[32] CC(C)c1ccc(S(=O)(=O)/N=C2/C=C(Sc3ncn[nH]3)C(=O)c3ccccc32)cc1

Compound	25	26	27	28	29	30	31	32
ALR H2O2 inh	-3	1	17	56	98*	2	-21	-64
Beta cell apopt	-6	1	-6	4	11	2	1	132*

# An excerpt from above in order of their number in ALR H2O2 inh, ascending.
No. | Compound | ALR H2O2 inh
32 | CC(C)c1ccc(S(=O)(=O)/N=C2/C=C(Sc3ncn[nH]3)C(=O)c3ccccc32)cc1 | -64
27 | COc1ccccc1N1C(=O)C2ON(c3ccccc3)C(c3ccc(N(C)C)cc3)C2C1=O (configuration not stated) | 17
28 | CCOC(=O)c1cc(OC(=O)c2cccnc2)n(-c2ccccc2)n1 | 56
29 | CCN(CC)c1ccc(NC(=O)CN2CCN(CC(=O)Nc3ccc(F)cc3)CC2)cc1 | 98*

# Some of the entries so far, with values under each structure.
# Sequence of screens – ALR H2O2 inh	Beta cell apopt
24: Cc1cc(/C=C2\NC(=O)N(Cc3ccc(Cl)cc3)C2=O)c(C)n1C
 : -10	0
25: Cc1cc(NC(=O)COC(=O)C(Cc2ccccc2)NC(=O)c2ccco2)no1 (configuration not stated)
 : -3	-6
8: O=[N+]([O-])c1ccccc1S(=O)(=O)N1CCN(S(=O)(=O)c2ccc3c(c2)OCCO3)CC1
 : -2	-6

# (listing goes on)
[33] CCCCCCCCCCCCCCCC[n+]1ccc(C(N)=O)cc1
[34] O=C(Nc1cccc(F)c1)c1cc(S(=O)(=O)N2CCOCC2)ccc1N1CCCC1
[35] S=C1NCCc2ccc(Cl)cc2C1c1ccccc1 (configuration not stated)
[36] COc1cccc(C(=O)N2CCN(CCCc3ccccc3)CC2)c1OC
[37] CCN(CC)S(=O)(=O)c1cc(F)ccc1OC
[38] O=C(NCc1ccco1)c1cccc2c1C(=O)c1ccc(N3CCC(Cc4ccccc4)CC3)cc1S2(=O)=O
[39] O=C(NCc1ccccc1)N(Cc1nc2ccccc2c(=O)[nH]1)C1CCCC1
[40] COC(=O)C1=C(C)N(Cc2ccccc2)C(=NCc2cccc(C(F)(F)F)c2)N[C@H]1c1cccc(C(F)(F)F)c1

Compound	33	34	35	36	37	38	39	40
ALR H2O2 inh	-5	-3	6	-1	-4	8	3	-4
Beta cell apopt	8	-1	14	-4	-5	6	0	99*

[41] COc1ccccc1-c1n[nH]c(=S)o1
[42] Cc1ccccc1C1C2=C(Nc3[nH]n(-c4ccccc4)c(=O)c31)c1ccccc1C2=O (configuration not stated)
[43] CCCNC(=O)C(Cc1cccc(OC)c1)NC(=O)c1ccc(C(C)(C)C)cc1 (configuration not stated)
[44] C=CCn1c(SCC(=O)Nc2cc(C)on2)nc2sc3c(c2c1=O)CCCC3
[45] c1coc(-c2nnc3sc(-c4cccs4)nn23)c1
[46] CC(C)Nc1ccccc1
[47] COC(=O)C1=C(C)N(Cc2ccccc2)C(=NCCc2c[nH]c3ccccc23)N[C@H]1c1cccc(C(F)(F)F)c1
[48] COc1ccccc1OCC(=O)N(Cc1nc(-c2ccccc2)no1)C1CCCCC1

Compound	41	42	43	44	45	46	47	48
ALR H2O2 inh	62	70	-4	15	11	-9	0	-2
Beta cell apopt	-1	2	3	13	4	2	2	7

[49] CC1(C)CC[C@@]2(C(=O)O)C(C1)C1=CCC3[C@@]4(C)CC[C@H](O)C(C)(C)C4CC[C@@]3(C)[C@]1(C)C[C@H]2O (some centres not stated)
[50] CC(C)[C@H](CN1CCC[C@H]1CN1C(N)=NC[C@@H]1Cc1ccccc1)N1C[C@@H](Cc2ccccc2)N(CCc2ccc(Cl)c(Cl)c2)C1=N
[51] CC(=O)NS(=O)(=O)c1ccc(NC(=O)C2C3C=CC(C3)C2C(=O)O)cc1 (configuration not stated)
[52] O=C1C=C(c2ccc3cc[nH]c3c2)C[C@@H](c2ccc3c(c2)OCO3)C1
[53] CCCS(=O)(=O)N1CCC(C(=O)NCCCN2CCCC2=O)CC1
[54] O=C(c1ccco1)N1CCN(C(=O)C(Cc2ccccc2)NS(=O)(=O)c2cccs2)CC1 (configuration not stated)
[55] COc1ccc(-n2nnc3c(SCC(=O)Nc4ccc5c(c4)OCCO5)ncnc32)cc1
[56] Cc1nn2c(-c3ccccc3)nnc2c2ccccc12

Compound	49	50	51	52	53	54	55	56
ALR H2O2 inh	-10	-8	-92	0	-8	-10	99*	-6
Beta cell apopt	22	4	3	12	1	-6	1	6

[57] CCCNC(=O)CSc1nnc(-c2ccco2)n1C
[58] CCN1C(=O)CC(N2CCC(Nc3ccc(OC)cc3)CC2)C1=O (configuration not stated)
[59] C#CCOCCOCCOCCNc1nc(N2CCN(C(=O)CCCCCCCCCCNC(=O)Cn3cc(CCCCCN)nn3)CC2)nc(N2CCN(C(=O)CCCCCCCCCCNC(=O)[C@@H](CCC(=O)O)n3cc(CCCCCN)nn3)CC2)n1
[60] COc1cccc(-c2sc3ccccc3c2-c2ccc(OCCN3CCCCC3)cc2)c1
[61] Cc1cc(C)c2c(N)c(C(=O)Nc3ncc(C)s3)sc2n1
[62] CCCCn1c2c(c(=N)c3c1CCC3)CCC2
[63] CC(=O)Nc1ccc(C(=O)NC2CCCC2)cc1
[64] O=C(CN1CCC(c2nc3ccccc3[nH]2)CC1)Nc1ccc2c(c1)OCO2

Compound	57	58	59	60	61	62	63	64
ALR H2O2 inh	-1	98*	-2	7	40	-5	-2	-12
Beta cell apopt	-1	-8	-10	28	14	48	-3	2

[65] COc1ccc2c(c1)OC[C@H]1[C@H]2N2C(=O)c3ccc(C)cc3NC(=O)[C@@]2(C)[C@H]1c1ccccc1
[66] COc1ccc(-n2nc3ccc(NS(C)(=O)=O)cc3n2)cc1Cl
[67] C[C@H]1COC(=O)[C@@H](NC(=O)OCC2c3ccccc3-c3ccccc32)C/C=C\C[C@H](CC(=O)NCCO)C(=O)N1
[68] O=C(CCC1COc2ccccc2O1)Nc1ccc(Cl)cn1 (configuration not stated)
[69] Cc1ccc(S(=O)(=O)CCC(=O)Nc2nccs2)cc1
[70] O=C1c2ccc(-c3ccc(F)cc3OCc3ccccc3)cc2S(=O)(=O)c2cccc(C(=O)N3CCCC3)c21
[71] COc1ccc2cc1Oc1ccc(cc1)C[C@H]1c3c(cc(OC)c4c3Oc3c(ccc5c3[C@H](C2)N(C)CC5)O4)CCN1C
[72] Cc1cn2nc(N)c3ccccc3c2n1

Compound	65	66	67	68	69	70	71	72
ALR H2O2 inh	3	-6	-5	-4	0	-4	-3	-4
Beta cell apopt	12	-2	10	-8	-3	2	122*	-1

[73] O=S(c1ccc2ccccc2c1)c1cnns1 (configuration not stated)
[74] Cc1ccc2nc(NC(=O)COC(=O)c3ccc(Br)o3)sc2c1
[75] COc1ccc(-c2ccc3c(c2)S(=O)(=O)c2cccc(C(=O)NC4CCCCC4)c2C3=O)cc1OC
[76] Cc1c(C(=O)NC(C)c2ccccc2)c(-c2ccccc2)nn1-c1ccccc1 (configuration not stated)
[77] CCN(CC)S(=O)(=O)c1cccc(C(=O)N/N=C/c2ccc(O)c(O)c2O)c1
[78] COc1ccc(-c2cc(-c3cccs3)c(C#N)c(SCC(=O)NCc3ccco3)n2)cc1
[79] CC(=O)OC1COC(OC2C(O)C(C)OC(OC3C(OC4CCC5(C)C(CCC6(C)C5CC=C5C7CC(C)(C)CCC7(C(=O)O)CCC56C)C4(C)CO)OCC(O)C3O)C2O)C(O)C1OC(C)=O (configuration not stated)
[80] Cc1ccc(C)c(-n2c(Cc3cc(=O)[nH]c(=O)[nH]3)nnc2SCC(=O)NCc2ccco2)c1

Compound	73	74	75	76	77	78	79	80
ALR H2O2 inh	99*	-4	2	-1	98*	-3	-19	3
Beta cell apopt	-24	-9	-7	-3	-2	-2	107*	-3

[81] CC(C)C[C@@H](CO)N(Cc1ccccc1)S(=O)(=O)N(Cc1ccccc1)[C@@H](CO)CC(C)C
[82] CC(C)(C)OC(=O)NCc1ccc(NC(=O)c2nc[nH]c2C(=O)NCCCNC(=O)c2[nH]cnc2C(=O)Nc2ccc(CNC(=O)OC(C)(C)C)cc2)cc1
[83] Cc1cccc2cc(C(c3nnnn3CC3CCCO3)N3CCc4ccccc4C3)c(=O)[nH]c12 (configuration not stated)
[84] O=C(Nc1ccc(Cl)c(Cl)c1)Nc1nnc(-c2ccncc2)s1
[85] O=S(=O)(Nc1nc2ccccc2nc1N1CCc2ccccc2C1)c1ccc(Br)cc1
[86] COc1cc2c(cc1OC)C(Cc1ccc(O)c(Oc3ccc(C[C@H]4c5cc(OC)c(OC)cc5CCN4C)cc3)c1)N(C)CC2 (some centres not stated)
[87] CCNc1cc2oc(=O)c(CN3CCOCC3)c(C)c2cc1C
[88] c1ccc(-c2cn3nc(-c4ccccc4)cnc3n2)cc1

Compound	81	82	83	84	85	86	87	88
ALR H2O2 inh	-2	-2	-14	3	6	7	-14	?
Beta cell apopt	12	11	3	44	-3	-7	-3	1

[89] Cc1ccc(Oc2cc(N3CCOCC3)nc(-c3ccccc3)n2)cc1
[90] Cc1cc(C)c2cc(C#N)c(N3CCCC3)nc2c1
[91] Nc1c(C(=O)NC2CC2)sc2nc3c(c(-c4ccco4)c12)CC/C3=C/c1ccco1
[92] CCN(CC)S(=O)(=O)c1ccc2[nH]cc(C(=O)NCCN3CCCCC3C)c(=O)c2c1 (configuration not stated)
[93] CCOC(=O)CSc1nnc(CNC(=O)c2ccc(OC)cc2)n1-c1ccc(OC)cc1
[94] CCOc1ccccc1C(=O)Nc1ccc2nc(N3CCN(c4ncccn4)CC3)cc(C)c2c1

Compound	89	90	91	92	93	94
ALR H2O2 inh	-14	-7	13	-7	3	-2
Beta cell apopt	-7	-1	-4	-1	0	-5

# Screening results as filed in PubChem.

# This is a subset (hit frequency here may not be typical).
